Rango dissoc inh = inhibition of RanGTP-driven Rango-importin beta dissociation; 0.071% of 340,000 active; Potency, µM (titrated, usually from 46.1 µM), for inactives: at the highest dose activity change, negative = inhibition; AID 540253; Biochemical FRET Rango-importin beta, RanGTP-induced dissociation; active means falling FRET ratio curve, often poorly fitted, with flat reads before Ran was added; inconclusive means other falling curves, or compound fluorescence or quenching; inactive means flat or rising ratio curve;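 further: potency means the concentration at half of the fitted maximal effect; % of control where 0% means no effect; nearly all actives have a fitted effect of over 45% in size; -100% = wells without RanGTP and RCC1; the record marks most hits as doubtful in a second field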
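Compounds sat 5 min at room temperature with 0.1 uM Rango biosensor plus 0.25 uM importin beta, then FRET pre-read. RanGTP-RCC1 (0.6 uM Ran, 2mM GTP, 0.2 uM RCC1) added for 45 min, and the CFP/YFP post-read measured blocked complex dissociation.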
miR-21 FLuc = raises the signal of a miR-21 reporter; HeLa miR-21 FLuc reporter, luciferase, 48 h; Potency, µM (top dose mostly 38.3 µM), for the others: top-dose reporter change, positive = more light; 340,000 tested, under 10 active; active = well fitted rising curve with a large enough effect; inconclusive = small, poorly fitted or top-dose-only effect; inactive = no such curve, though single readings can be large or run the other way;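 further: % of control where 0% means no effect; miR-21 action dims this reporter so a rising signal means less miR-21 action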
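Luminescence from a firefly luciferase reporter carrying a miR-21 binding site downstream, stably expressed under a CMV promoter in HeLa cells that make miR-21 endogenously, reports miRNA modulation after 48 h compound exposure up to approximately 40uM final.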
Rango-impB inh = inhibitors of Rango-importin beta complex formation; Q14974; Rango CFP/YFP FRET sensor + importin beta, 45 min; Potency, µM (titrated, usually from 92.2 µM), for the others: top-dose inhibition of complex formation; 0.031% of 340,000 active; active = rising FRET ratio curve, often small or poorly fitted; inconclusive = mostly compound fluorescence or quenching in the first reads; inactive = flat curves in all reads;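 further: potency means the concentration at half of the fitted maximal effect; 0% = DMSO wells and 100% = buffer wells lacking importin beta; nearly all actives have a fitted effect of over 15% in size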
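Inhibition scored from the CFP 486 nm/YFP 530 nm FRET ratio 45 min after adding 0.125 microM importin beta to 50 nM Rango biosensor preincubated 5 min with compound (room temperature, PBS with DTT, Tween-20, BSA). No-importin wells as positive control.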
GLA inh pH 4.5 = inhibitors of human alpha-galactosidase A at pH 4.5. P06280. purified enzyme, 4-MU-alpha-Gal fluorescence, pH 4.5. activity change, negative = inhibition, % at 105 µM. 230,000 tested, under 10 active; inconclusive = small, poorly fitted or top-dose-only inhibition, or a rising curve; inactive = flat fitted curve, though single readings scatter; no compound was filed as active;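 further: 0% = full activity with enzyme and -100% = basal without enzyme; dose as in the result columns while the protocol names 77 µM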
Target sequence (P06280 whole entry, looked up): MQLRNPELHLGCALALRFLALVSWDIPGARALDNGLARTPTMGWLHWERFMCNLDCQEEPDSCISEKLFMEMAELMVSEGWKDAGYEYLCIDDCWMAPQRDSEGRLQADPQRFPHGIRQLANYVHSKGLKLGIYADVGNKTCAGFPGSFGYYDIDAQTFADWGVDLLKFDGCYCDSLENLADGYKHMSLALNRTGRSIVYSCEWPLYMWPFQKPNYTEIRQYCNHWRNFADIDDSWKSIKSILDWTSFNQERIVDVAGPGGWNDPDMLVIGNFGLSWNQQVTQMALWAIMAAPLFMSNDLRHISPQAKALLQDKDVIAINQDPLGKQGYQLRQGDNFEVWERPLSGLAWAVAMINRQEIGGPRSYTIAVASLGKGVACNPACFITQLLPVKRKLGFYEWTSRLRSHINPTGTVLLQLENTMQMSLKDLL
* marks the source's active call; other numbers are inactive results; ? = inconclusive; . = no result given; [ ] = another dose, or the depositor's remark. Some of the compounds tested. The share of hits here may be higher or lower than overall.

Fields – Rango dissoc inh	miR-21 FLuc	Rango-impB inh	GLA inh pH 4.5
> CC1(C)Oc2ccc(C(=O)NNC(=O)Nc3ccccc3)cc2NC1=O
→ -12%	-1%	7.1%	.
> O=C(Nc1cccc(C(=O)N2CCCCC2)c1)C1CC1
→ 10%	.	0.6%	.
> CSc1nnc(C)c(/C=C/Nc2ccc(F)cc2F)n1
→ ?	1%	?	4
> CC(C)(C)c1[nH]nc2c1C(c1cccnc1)C(C#N)=C(N)O2 (stereo not drawn)
→ -1%	-8%	-0.9%	-12
> CCOc1ccc(C(=O)NC(=S)Nc2cccc(S(=O)(=O)NC3=NCCC3)c2)cc1
→ 5%	12%	-5.1%	-19
> CCc1sc(C(=O)N2CCN(c3ccc(F)cc3)CC2)cc1C
→ -20%	-6%	5.7%	.
> O=C(CCCCCN1C(=O)CCC1=O)Nc1ccc2c(c1)OCO2
→ 3%	-21%	-0.4%	4
> Cc1ccc(NNS(=O)(=O)c2ccc(C)cc2)cc1
→ 1%	-10%	-0.3%	3
> O=c1[nH]c(SCCN2CCOCC2)nc(O)c1-c1ccccc1
→ -1%	0%	-2.8%	-2
> O=C(OCc1cc2ccccc2[nH]c1=O)c1ccccc1
→ -4%	0%	-3.5%	5
> CCOC(=O)C1(Cc2ccccc2)CCN(Cc2cccn2-c2nccs2)CC1
→ -9%	13%	1.4%	-4
> COc1ccccc1N(CC(=O)Nc1c(C)cccc1C)S(C)(=O)=O
→ 16%	-2%	-2.6%	-2
> Cc1ccc(N=C2NC(=O)/C(=C/c3cn(C)c4ccccc34)S2)cc1C
→ ?	-18%	?	-10
> Cc1sc2ncnc(NC3CCN(Cc4ccccc4)CC3)c2c1C
→ -6%	15%	0.0%	0
> COc1ccc(/C=C/C(=O)Nc2ccc(OC)cc2[N+](=O)[O-])cc1
→ -5%	-11%	7.4%	-1
> CNC(=S)N/N=C/c1ccc2c(c1)OCCO2
→ -22%	-47%	1.5%	-4
> CN(C)CCn1c2ccccc2c2nc3ccc([N+](=O)[O-])cc3cc21
→ 1%	1%	-0.1%	-8
> Cc1cc(C)c(C#N)c(OCC(=O)Nc2ccccc2)n1
→ -8%	-1%	-0.2%	.
> CC(=O)C1=C(O)C(=O)N(Cc2ccccc2)C1c1ccc(F)cc1 (stereo not drawn)
→ 1%	-7%	-1.5%	.
> O=C(O)c1cc(Br)ccc1NN=C1CCCCC1
→ 8%	-30%	2.5%	0
> COC(=O)C1=C(C(=O)OC)N2C=CC=CC2(C)C(C(=O)OC)=C1C(=O)OC (stereo not drawn)
→ -23%	-3%	-7.7%	7
> COc1ccc(N2CCN(C(=O)Nc3ccccc3C)CC2)cc1
→ -7%	-1%	-0.9%	3
> CC(C)(C)c1ccc(CN2C3=NCCCN3c3ccccc32)cc1
→ -10%	23%	-6.4%	-4
> CC(C)C1Oc2ccccc2N(CC(=O)NCCCN2C(C)CCCC2C)C1=O (stereo not drawn)
→ -7%	-6%	-0.1%	-1
> O=C(Nc1ccc2c(c1)OCO2)c1cc(-c2cccnc2)nc2ccccc12
→ -6%	-1%	-0.1%	7
> CCOC(=O)c1cc2c(=O)n3ccccc3nc2n(CC(C)C)c1=NC(=O)c1ccco1
→ ?	9%	?	22
> CCOc1ccc(C(=O)OCC(=O)NCCNC(=O)COC(=O)c2ccc(OCC)cc2)cc1
→ -1%	-3%	2.7%	.
> COc1ccnc(CSC(N)=Nc2ccccc2C(F)(F)F)c1
→ 0%	-13%	1.5%	4
> O=C(Cn1nnc2ccccc21)c1ccc(Cl)cc1
→ 5%	-38%	-0.5%	3
> O=C(Nc1cc(Cl)ccc1O)C1CCCO1 (stereo not drawn)
→ -1%	-6%	-2.4%	4
> Cc1ccc(C(=O)c2cc([N+](=O)[O-])ccc2N2CC(C)OC(C)C2)cc1 (stereo not drawn)
→ -10%	-4%	?	0
> Cc1ccc(S(=O)(=O)N(C)C)cc1NC(=O)COC(=O)C1CCN(S(=O)(=O)c2cccs2)CC1
→ -1%	.	-3.1%	.
> Cc1cccc(Nc2nnc(SCC(=O)c3ccc(O)cc3O)s2)c1
→ 8%	-19%	-2.6%	.
> O=C(CCSc1ccccc1)NCCSCc1ccccc1
→ -14%	-14%	-2.4%	-1
> Cc1ccc(NC(=O)CN(C)C(=O)c2ccc(S(=O)(=O)N(C)c3ccccc3)cc2)cc1
→ 3%	-4%	1.7%	-7
> CCCCNS(=O)(=O)c1ccc(NC(=O)C2CCCO2)cc1 (stereo not drawn)
→ ?	-14%	-1.6%	0
> Cc1ccc(C(=O)OCN2C(=O)c3ccccc3C2=O)o1
→ 0%	.	-2.1%	.
> CCCC(=O)Nc1nc2ccc(OC)cc2s1
→ 3%	-21%	-1.3%	-3
> CN(C)CC(O)COc1ccc(-c2ccc(C#N)cc2)cc1 (stereo not drawn)
→ .	-7%	.	0
> O=C(/C=C/c1ccc2c(c1)OCCO2)N1CCN(c2ccc(F)cc2)CC1
→ -5%	-1%	0.3%	.
> CC(C)N1C(=O)CCC1C(=O)N1CCN(c2ccc(F)cc2)CC1 (stereo not drawn)
→ -7%	0%	-4.8%	2
> CCOc1cc(C2c3c(oc4cc(C)c(Cl)cc4c3=O)C(=O)N2Cc2ccco2)ccc1O (stereo not drawn)
→ -6%	-11%	0.5%	1
> O=C(Nc1ccc(NC(=O)c2ccco2)nc1)c1cccnc1
→ 5%	-21%	4.5%	2
> Cn1c(=O)c2cnc(-c3ccc(C(F)(F)F)cc3)nc2n(C)c1=O
→ 3%	5%	4.2%	-6
> CC1=C(C(=O)OCc2ccccc2)C(c2ccccc2Br)NC(=O)N1 (stereo not drawn)
→ 13%	8%	-2.6%	.
> O=C(CCCC(=O)N1CCCc2ccccc21)N1CCCc2ccccc21
→ 1%	4%	-0.1%	-1
> CCN(C(=O)CSc1nnc(-c2ccco2)n1Cc1ccccc1)C1CCS(=O)(=O)C1 (stereo not drawn)
→ -11%	.	4.2%	.
> COc1nccc(C(F)(F)F)c1C(=O)NC(=O)Nc1c(C)cccc1C
→ -10%	0%	1.8%	-18
> O=C1CCCC/C1=C/Nc1ccc(S(=O)(=O)Nc2ncccn2)cc1
→ -19%	-1%	?	-11
> Cc1cc(Cl)ccc1OCCCC(=O)N1CCCCC1
→ 15%	-55%	-0.8%	0
> COC(=O)CC1C(=O)NCCN1C(=S)NC(=O)C(c1ccccc1)c1ccccc1 (stereo not drawn)
→ -9%	-1%	3.2%	4
> O=c1[nH]cnc2sc3c(c12)CCCCC3
→ -14%	-4%	?	-1
> CCOc1ccc(C(CC(=O)O)NC(=O)c2ccco2)cc1OC (stereo not drawn)
→ 0%	1%	1.1%	-7
> CCN1CCc2nc(NC(=O)c3ccccc3)sc2C1
→ ?	12%	?	6
> COc1ccc(/C=C/C(=O)NC(=S)NNC(=O)c2cc(OC)c(OC)c(OC)c2)cc1
→ -7%	4%	3.5%	-8
> CCOC(=O)c1csc(NNC=O)n1
→ 17%	-4%	-2.9%	9
> O=C(CSc1nnc(CNc2ccc(Cl)cc2)o1)Nc1nc2c(s1)CCCC2
→ -2%	-1%	-1.1%	-2
> Cc1cc(C)c(OCC(=O)Nc2ccccc2N2CCOCC2)c(C)c1
→ -5%	6%	5.2%	-6
> CN(C)C1=NCCN1CC1CCCCCC1
→ -22%	.	2.8%	.
> C/C=C(/C)C(=O)O[C@@H]1[C@H](OC(C)=O)c2c(ccc3ccc(=O)oc23)OC1(C)C
→ -11%	-19%	0.7%	0

Rewritten with each value named: 4 of the compounds above.
> O=C(CCCC(=O)N1CCCc2ccccc21)N1CCCc2ccccc21
  Rango dissoc inh: 1%
  miR-21 FLuc: 4%
  Rango-impB inh: -0.1%
  GLA inh pH 4.5: -1
> CN(C)C1=NCCN1CC1CCCCCC1
  Rango dissoc inh: -22%
  miR-21 FLuc: .
  Rango-impB inh: 2.8%
  GLA inh pH 4.5: .
> CCOc1ccc(C(CC(=O)O)NC(=O)c2ccco2)cc1OC (stereo not drawn)
  Rango dissoc inh: 0%
  miR-21 FLuc: 1%
  Rango-impB inh: 1.1%
  GLA inh pH 4.5: -7
> CCN(C(=O)CSc1nnc(-c2ccco2)n1Cc1ccccc1)C1CCS(=O)(=O)C1 (stereo not drawn)
  Rango dissoc inh: -11%
  miR-21 FLuc: .
  Rango-impB inh: 4.2%
  GLA inh pH 4.5: .

New compounds follow:
Fields – Rango dissoc inh	miR-21 FLuc	Rango-impB inh	GLA inh pH 4.5
> CN(CCNC(=O)CN1C(=O)CSc2ccc(S(=O)(=O)N3CCCC3)cc21)Cc1ccccc1
→ 4%	-6%	-2.2%	-2
> Cc1ccc(C)c(NC(CC(=O)c2ccccc2)C(=O)OCC(=O)c2cccs2)c1 (stereo not drawn)
→ 1%	-13%	-1.5%	8
> CCc1noc(C)c1C(=O)OCC(=O)Nc1cccc(C)c1
→ 1%	.	-3.4%	.
> CCN(CC)c1ccc(-c2c(C#N)c(N)nc(OC)c2C#N)cc1
→ ?	-10%	?	7
> CCOc1ccc(-c2nnc(-c3ccccc3)n2-c2ccccc2)cc1
→ -13%	-34%	1.7%	5
> CC(OC(=O)c1ccccc1)C(=O)NCCC1=CCCCC1 (stereo not drawn)
→ 0%	-2%	0.7%	1
> Cc1cc(SCC(=O)N/N=C/c2ccc(O)cc2O)nc2ccccc12
→ -7%	9%	-0.8%	.
> c1ccc(-n2ncc3c(NCc4ccccn4)ncnc32)cc1
→ 9%	-38%	0.1%	-2
> Nc1nnc(SCCOc2ccc(Br)cc2)s1
→ -2%	-43%	-1.9%	-4
> O=C(Nc1nc2cc3c(cc2s1)OCO3)c1ccco1
→ -3%	24%	-1.6%	11
> Cc1cccc(NC(=O)c2ccc(S(=O)(=O)NCc3cccnc3)cc2)c1C
→ 8%	-1%	0.2%	.
> COc1ccccc1NC(=O)N(Cc1ccco1)Cc1cc2cccc(C)c2[nH]c1=O
→ 1%	6%	-0.8%	-4
> Cc1ccc(NC(=O)C2C(=O)N(CCO)C3(C)CC2c2ccccc2O3)cc1 (stereo not drawn)
→ 7%	-55%	-0.4%	6
> CCCCC(CCC(=O)Nc1cc([N+](=O)[O-])ccc1O)C(=O)O (stereo not drawn)
→ 1%	3%	3.4%	-6[21.1 µM]
> O=C(Oc1ccccc1)N(c1ccccc1)c1ccccc1
→ -3%	0%	0.7%	-8
> O=S1(=O)CCOCCCN1Cc1cccc(C(F)(F)F)c1
→ -18%	1%	-2.3%	.
> CSc1nc(Oc2ccc(F)cc2F)cc(C(F)(F)F)n1
→ 0%	-4%	2.9%	7
> COc1cc(NC(=O)c2ccc([N+](=O)[O-])cc2)c(OC)cc1NC(=O)CC(C)C
→ 0%	-1%	-6.4%	1
> CCCN(CCC)C(=O)CSc1nc2c(sc(=S)n2-c2ccc(OCC)cc2)c(=O)[nH]1
→ -11%	0%	-3.9%	4
> COc1ccc(C(=O)Nc2cccc(/C=C(/CCC(=O)O)c3nc4ccccc4s3)c2)cc1
→ 11%	.	1.5%	.
> COc1ccccc1OCC(=O)NCC1CCCN(Cc2cnn(C(C)C)c2)C1 (stereo not drawn)
→ 2%	1%	1.3%	.
> COc1ccc(NC2CCCN(C(=O)CCN3CCOCC3)C2)cc1 (stereo not drawn)
→ -10%	-2%	1.8%	.
> CC(C)NC(=O)c1ccccc1NC(=O)Cc1ccc([N+](=O)[O-])cc1
→ 8%	-6%	1.3%	2
> CCC(NC(=O)Cc1c(C)c2c(cc(C)c3c(C)c(C)oc32)oc1=O)C(=O)O (stereo not drawn)
→ -1%	0%	1.0%	.
> Cc1ccc2nc(/C(C#N)=C\c3ccc(Oc4ccc(C(F)(F)F)cc4[N+](=O)[O-])cc3)[nH]c2c1
→ 0%	-51%	?	0
> COc1ccc(/C=N/Nc2nonc2N)c(OC)c1
→ -5%	-39%	-0.9%	-2
> CCc1nc(N2CCCC2C(=O)O)c2oc3ccccc3c2n1 (stereo not drawn)
→ 0%	3%	1.0%	1
